Compound activity (PubChem)
UCH37 inh – human UCH37 deubiquitinating enzyme inhibition. Q9Y5K5. 330,000 compounds, 0.33% hits. inhibition, % (concentration not given with the values). purified proteasome/UCH37, Ub-AMC cleavage fluorescence;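 active = mean of two replicates above 20%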;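 note: 0% = compound-free wells with enzyme and 100% = wells lacking proteasome; stock transfer was 100 nL into about 20 µL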
Target sequence (Q9Y5K5 whole entry, looked up): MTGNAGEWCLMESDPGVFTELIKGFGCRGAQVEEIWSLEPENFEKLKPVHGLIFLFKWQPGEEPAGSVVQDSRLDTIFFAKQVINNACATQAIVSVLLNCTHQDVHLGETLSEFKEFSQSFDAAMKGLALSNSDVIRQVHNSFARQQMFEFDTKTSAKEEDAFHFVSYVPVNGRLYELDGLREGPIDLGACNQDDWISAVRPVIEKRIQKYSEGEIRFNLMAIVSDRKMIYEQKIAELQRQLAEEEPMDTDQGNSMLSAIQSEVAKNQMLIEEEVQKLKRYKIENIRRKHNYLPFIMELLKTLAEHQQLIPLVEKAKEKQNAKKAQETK
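System: Proteasome-associated human UCH37 deubiquitinase; Input: 0.15 nM proteasome in added enzyme buffer; Also added: Ub-AMC substrate from 1 µM stock; Incubation: 30 min compound-proteasome preincubation then 25 min substrate reaction, room temperature; Detection: fluorescence, ex 355 nm, em 460 nm; Read-out: % inhibition of Ub-AMC cleavage fluorescence; Benchmarks: no-proteasome and no-compound wells.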
T cruzi repl – blocks replication of Trypanosoma cruzi | 300,000 compounds, 1.4% hits | AID 1885 | inhibition, % (test concentration not listed) | T. cruzi beta-gal in NIH3T3, luminescence, 90 h;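 active = mean inhibition across valid replicates above about 55%, limit read from the data; inconclusive = mean below that limit but half or more replicates reach it; inactive = mean below it, under half of replicates reach it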;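 note: signal also drops with host cell toxicity which is not excluded here; 0% = plate median of DMSO wells and 100% = zero luminescence signal; higher percent means less beta-gal luminescence so fewer parasites; stock transfer was 50 nL into about 50 µL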
B2AR ag – agonists of human beta-2 adrenergic receptor inducing internalization; Am2.2-beta2AR cells, FAP receptor internalization, flow cytometry; reference of the scale not given here; response, % (test concentration not listed); 340,000 compounds, 0.43% hits; AID 504454;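 active = response above a set limit, near 3 SD of response in nonfluorescent compounds, cut at about 42% in these data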;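 note: stock transfer was 100 nL into about 11 µL; a reference agonist was the positive control; negative values mostly stem from fluorescent compounds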
Target sequence (P07550 whole entry, looked up): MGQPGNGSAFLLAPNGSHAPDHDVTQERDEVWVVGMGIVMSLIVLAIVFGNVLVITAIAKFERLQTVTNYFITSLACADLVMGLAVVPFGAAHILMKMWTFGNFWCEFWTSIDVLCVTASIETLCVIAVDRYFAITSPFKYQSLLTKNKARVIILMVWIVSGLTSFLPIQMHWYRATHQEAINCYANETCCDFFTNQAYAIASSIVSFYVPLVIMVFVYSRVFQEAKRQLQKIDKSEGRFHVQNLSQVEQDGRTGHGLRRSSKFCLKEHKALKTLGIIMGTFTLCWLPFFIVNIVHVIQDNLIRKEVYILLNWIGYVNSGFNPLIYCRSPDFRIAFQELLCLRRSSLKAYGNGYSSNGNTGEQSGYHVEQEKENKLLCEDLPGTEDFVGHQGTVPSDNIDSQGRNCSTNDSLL
Calb FLC – C. albicans growth modulation with fluconazole | C. albicans CaCi-2 (fluconazole-resistant clinical isolate) + fluconazole, Alamar Blue growth, 48 h | growth inhibition, % (concentration not given with the values) | 300,000 compounds, 0.57% hits;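 active = most replicates above 75%; inconclusive = exactly half above 75%; inactive = most below 75%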;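 note: all wells also contain fluconazole at 8 µg/ml as a sub-toxic cotreatment; 0% = median of DMSO wells and 100% = median of geldanamycin control wells; wells of about 8 µL received 7.5 nL stock; the first replicate is given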
Bfl-1 A1 inh – inhibitors of the anti-apoptotic protein A1, read as caspase activation. caspase activation, % (no concentration beside the values). 330,000 compounds, 0.066% hits. MEF A1-2A-BIM cells, Caspase-Glo 3/7 luminescence, 3 h; percent of clofoctol response, vehicle zero;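 active = over half of replicate activation scores above 10%, or exactly half above 10 with the replicate mean above 10; inconclusive = replicate mean below 10 yet half the replicates above 10; inactive = over half of replicates below 10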;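 note: wells of about 30 µL received 50 nL stock; many hits fall short of the cut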
RanGTP-Impb inh – inhibitors of RanGTP-importin-beta interaction, primary screen, biochemical, FRET, CFP-Ran, YFP-importin-beta, homogeneous. cell-free CFP-Ran/YFP-importin-beta FRET ratio. inhibition, % (test concentration not listed). 300,000 compounds, 1.1% hits. AID 2216;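 active = most replicates above 15%; inconclusive = exactly half above 15%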;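 note: 0% = DMSO wells and 100% = Ran loaded with GDP instead of GTP; wells of about 40 µL received 100 nL stock; the first replicate is given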
Beta apoptosis – blocks beta cell apoptosis. INS-1E cytokine-induced death, ATP luminescence, 48 h; percent of positive-control rescue, neutral wells zero. protection from apoptosis, % (test concentration not listed). 300,000 compounds, 0.8% hits. AID 435005;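 active = all replicates at 75% or more, or half of them and the mean; inconclusive = half reach 75% but not the mean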;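 note: 0% = cytokine-treated negative control wells and 100% = positive control rescue; higher means more ATP so stronger rescue from cytokine killing; wells of about 40 µL received 100 nL stock; the first replicate is given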
LANA-H2A inh – blocks KSHV LANA binding to histone H2A/H2B. 320,000 compounds, 0.6% hits. inhibition, % (concentration not given with the values). cell-free LANA-H2A/H2B peptide, fluorescence polarization; in the data active = inhibition mostly above about 10%, no sharp cut-off; inactive = mostly below about 6.7%;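 note: stock transfer was 7.5 nL into about 10 µL; 0% = median of vehicle wells and 100% = median of positive control wells; one replicate is shown; the record names a cut of 25% in any replicate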
Active calls of the source: *; u = inconclusive; x = no result given.

SMILES	UCH37 inh	T cruzi repl	B2AR ag	Calb FLC	Bfl-1 A1 inh	RanGTP-Impb inh	Beta apoptosis	LANA-H2A inh
C#CCOc1ccc(/C=C2/C(=O)ON=C2C)cc1Cl	5.2	-5	-2	-4	-0.2	6.0	-11	-3.6
O=C(Nc1cccc(C(F)(F)F)c1)c1cnccn1	-5.4	-5	-7	11	-0.1	-0.6	-2	-13
CCOC(=O)NNc1ccccc1	1.6	-9	1	4	0.1	3.1	0	0.0
O=C(Nc1ccc(NC(=O)C2CC2)nc1)c1ccncc1	4.5	-1	-8	5	1.6	0.0	-5	2.7
CC1(C(=O)NC2CCCC2)CCC(=O)N1Cc1cccs1 (stereo unspecified)	4.2	-14	3	-11	-0.4	0.9	-3	0.6
Cc1cc(C)c(S(=O)(=O)c2ccccc2)c(=O)[nH]1	-2.3	-19	-1	-4	-0.1	1.3	-6	-0.1
CCn1c(=NC(=O)c2ccc(N3C(=O)CCC3=O)cc2)sc2c(OC)ccc(OC)c21	-24	-20	7	4	0.1	-1.9	-3	-6.2
COc1cc(CNc2ccc(O)cc2)cc(Br)c1OCc1ccccc1	0.4	-32	3	25	0.6	-6.8	29	-2.2
O=C1CC(N2CCN(c3ccc(F)cc3)CC2)C(=O)N1Cc1ccccc1 (stereo unspecified)	2.3	-1	14	-6	-0.4	1.8	-1	-2.6
CC(=O)Nc1cccc(NC(=O)C(F)(F)F)c1	3.0	-13	2	-12	0.1	-2.0	2	1.4
Cc1ccc(S(=O)(=O)NN=C2CCC(C(C)(C)C)CC2)cc1[N+](=O)[O-] (stereo unspecified)	2.6	19	3	-1	0.9	2.5	-2	4.5
CC(C)(C)NC(=O)C(=O)NN=C1CCCCCCC1	0.3	10	-2	-13	0.5	-2.7	-4	-6.6
CCOc1ccc(-c2nc(CN(Cc3ccccc3)C[C@@H]3CCC(=O)N3)c(C)o2)cc1	-1.6	42	-4	8	-0.1	-2.9	1	4.6
COc1ccc2c(c1)c1nnc(SCC(=O)NC3CC3)nc1n2C	x	-7	-14	-1	0.7	u	-7	-6.2
CCOC(=O)NN1C(=O)c2ccccc2NC1c1ccccc1O (stereo unspecified)	-434	-6	7	3	0.4	u	4	0.2
CC(=O)Nc1ccc(NC(=O)C(C)Sc2nc3ccccc3c(=O)n2Cc2ccco2)cc1 (stereo unspecified)	0.5	-1	-3	8	1.3	2.9	-2	-1.2
COc1ccc(NC(=O)CSc2nnc(-c3ccccc3C)n2N)cc1	7.5	-11	12	-4	2.1	-1.4	-2	5.8
COc1cc2nc(NC(=O)c3ccc(F)cc3Cl)sc(=O)c2cc1OC	4.4	-9	-2	0	-1.0	-0.1	-9	1.0
CN(c1ccc(C(=O)NCCSCc2ccco2)cc1)S(C)(=O)=O	1.1	1	-3	u	0.3	3.3	3	-3.3
Cc1c(C(=O)NCCc2ccccc2)oc2ccccc12	0.2	-1	-1	-5	-4.8	-2.2	x	1.7
COC(=O)CCN1CCc2cc(N=Nc3ccc([N+](=O)[O-])cc3)ccc21	2.0	-4	0	-4	-4.8	2.8	40	-0.8
CCOC(=O)N1CCN(Cc2nc(CC3CC3)no2)CC1	0.5	-5	2	-10	0.1	-0.6	-4	-3.4
O=S(=O)(Nc1nc2ccccc2s1)c1ccc(Br)s1	3.2	-10	3	89*	0.3	-3.8	7	-2.4
CN(C)c1ncc(S(=O)(=O)c2ccccc2)c(-c2ccccc2Cl)n1	5.8	-10	-1	-15	0.2	4.5	-6	0.4
NNC(=O)c1ccc2nc(-c3ccc(Br)cc3)cn2c1	x	-13	29	-46	-1.1	-0.1	7	-5.8
COc1ccc([C@H]2CC(=O)C=C(c3ccc(Oc4ccccc4)cc3)C2)cc1OC	4.0	x	-11	x	-1.3	x	11	3.2
COc1ccc(C(=O)CSc2nccn2C)cc1	-3.6	-11	-16	8	-3.4	0.0	x	-1.0
COc1ccc(N=C2CCCN2CC(N)=O)cc1	6.3	10	-13	-11	0.0	-1.1	2	x
Cc1ccc2cc(S(=O)(=O)NCCC(=O)O)ccc2c1	1.7	-7	4	5	-0.2	u	-4	6.1
O=C(NCC1CCCO1)/C(=C\c1cccs1)NC(=O)c1ccccc1 (stereo unspecified)	3.2	-10	0	-1	0.5	x	-6	1.8
CCN1C(=O)[C@@H]2[C@@H](c3ccc(-c4ccc(F)cc4)cc3)N3CCCC[C@@]3(C(=O)OC)[C@@H]2C1=O	-0.1	35	15	10	2.2	0.3	-3	-1.9
CC(=O)c1c(C)cc(C)c(CSc2nc(C)cc(=O)[nH]2)c1C	3.2	3	-1	10	0.0	u	-11	-5.4
Cc1c(C(=O)N(CCO)Cc2ccccc2)oc2c(F)cccc12	5.8	-1	-3	-5	-0.8	1.1	-4	2.4
CCOc1ccc(C(=O)Nc2ccccc2-c2ccccc2)cc1Cl	-1.9	35	-14	3	-0.9	3.9	1	1.5
O=C1C=C(c2cccs2)CC(c2cccs2)C1n1cnc([N+](=O)[O-])c1 (stereo unspecified)	1.3	6	10	0	0.3	0.4	5	-6.4
O=[N+]([O-])c1cccc(C2Nc3cccc4cccc(c34)N2)c1	x	-2	4	-10	-0.5	2.6	2	-2.0
CC(=O)OC1CC[C@@]2(C)C(CCC3C2CC(=O)[C@@]2(C)C3CC3CC(C)=CC(=O)C32)C1 (stereo partly specified)	1.0	-7	-2	5	1.2	4.0	2	-2.7
CCOC(=O)C(=O)C1C(=O)Nc2ccccc21 (stereo unspecified)	0.6	-2	-6	-7	0.9	1.4	-10	3.7
O=C1c2ccccc2C(Nc2ccc(F)cc2F)N1CCN1CCOCC1 (stereo unspecified)	1.5	7	-6	0	-0.6	-0.3	-5	4.3
CC(=O)OCC1OC(c2ccccc2)C(OC(C)=O)C(OC(C)=O)C1OC(C)=O (stereo unspecified)	4.9	-12	18	2	-0.2	u	-1	1.2
COc1ccc(-n2nnnc2SCC(=O)Nc2nnn(C)n2)cc1	0.7	-10	3	0	0.1	-4.2	-7	-3.2
O=C(NC(=S)N1CCCCC1c1cccnc1)c1ccccc1 (stereo unspecified)	1.7	46	0	-5	0.7	3.7	x	3.3
CCOC(=O)c1ccc(COC(=O)CNC(=O)CNC(=O)c2ccc(OC)cc2)o1	-0.6	-5	6	13	-0.2	2.0	x	1.2
COc1cc(CNCCCN2CCOCC2)c(Br)cc1OC(C)C	3.5	35	2	-7	0.5	u	x	-3.0
C/C(=N\NC(N)=S)c1cccnc1	x	16	1	-1	1.1	0.6	-2	3.5
Cc1cc(C)n2nc(C(=O)N/N=C/C=C/c3ccccc3)nc2n1	x	6	-11	0	0.0	3.2	1	-3.3
CCOc1ccc(CCNC(=O)Cc2ccc(NC3=NC4CS(=O)(=O)CC4S3)cc2)cc1OCC (stereo unspecified)	0.8	3	6	-4	0.1	-6.4	7	2.5
N#CCSc1nc2ccccc2c(=O)n1CCCC(=O)NCc1ccco1	1.7	15	-2	1	0.3	-5.9	5	5.4
Cc1nc(NC(=O)c2cccc(Cl)c2)sc1-c1csc(Nc2cccc(Cl)c2)n1	x	-2	x	-3	-4.8	3.1	8	-2.1
COC(=O)C1=C(C)N(Cc2ccc(OC)c(OC)c2)C(=O)C1	2.8	-6	-5	-8	0.1	-1.5	-4	2.1
CN(C)CCCn1c(NCc2ccc3c(c2)OCO3)nc2ccccc21	-1.3	-4	-1	-3	-0.8	-2.9	-4	2.9
O=C(Nc1cccc2ccccc12)N1CCN(c2ccc(F)cc2)CC1	2.9	14	1	0	0.4	-2.3	-2	1.3
Cc1ccc2cc(/C=N/NC(=O)c3ccc(F)cc3)c(Cl)nc2c1	x	-14	-4	6	-0.1	1.5	-6	0.3
C[C@@H](C(=O)Nc1ccc2c(c1)OCCO2)n1nnc2ccccc2c1=O	-5.1	13	5	5	-0.5	-1.9	2	-1.1
CCCCn1c(N)c(N(CC(C)C)C(=O)c2cc(C)nc3ccccc23)c(=O)[nH]c1=O	-2.9	-2	8	4	0.1	1.6	-5	0.8
CC(C)C[C@H]1CN=C(Nc2ccccc2)N1CCCC1CCCC1	5.1	42	24	-21	0.6	-2.1	38	2.3
COc1cccc(NC(=O)CCC2CCN(C(=O)C3CC=CCC3)CC2)c1 (stereo unspecified)	3.0	-6	-2	-7	0.1	1.3	2	0.4
CC(C)(C)OC(=O)C[C@@H]1C/C=C\C[C@@H](CC(=O)N[C@H](CO)Cc2ccccc2)C(=O)N2CCC[C@H]2COC1=O	-2.2	x	11	x	-0.4	x	-2	-0.1
Cc1ccc(NC(=O)CSc2nnc(-c3cc(C)on3)o2)cc1	5.5	-13	6	3	0.8	-2.7	1	-2.0
CCOc1ccc(-n2nc3ccc(NC(=O)c4ccc5c(c4)OCCO5)cc3n2)cc1	-116	8	69*	9	2.1	3.9	35	-3.7

Next section
SMILES	UCH37 inh	T cruzi repl	B2AR ag	Calb FLC	Bfl-1 A1 inh	RanGTP-Impb inh	Beta apoptosis	LANA-H2A inh
CCc1c(C)nc2c(-c3ccccc3)c(C)[nH]n2c1=O	-0.4	-6	3	-6	-1.5	u	-5	-1.6
O=C(CNC(=O)Cn1ccc2ccccc2c1=O)NCCCN1CCCCCC1	-3.1	x	-1	x	0.0	x	-6	3.4
Cc1ccc(NC(=O)CC2S/C(=N/N=C3/NC(=O)CS3)NC2=O)cc1 (stereo unspecified)	1.7	1	1	3	0.8	-2.4	5	2.1
CC(=O)c1cccc(NC(=O)CC2S/C(=N/N=C/c3ccccc3)NC2=O)c1 (stereo unspecified)	x	-6	15	-18	1.1	3.0	0	6.1
C=CCC(C(=O)OC)(C(=O)OC)c1ccccc1[N+](=O)[O-]	4.7	-25	-1	30	0.2	11	2	1.3
COCCn1cnc2c1c(=O)[nH]c(=O)n2Cc1ccccc1	3.9	-28	11	5	0.4	1.2	x	-2.7
COc1ccc(OC)c(NC(=O)CSc2nnnn2-c2ccccc2F)c1	1.3	8	-1	-4	0.7	1.0	5	6.5
Cc1ccc(-c2nn(-c3ccccc3)cc2C(N)=O)o1	-4.7	-3	-8	14	0.8	u	-3	-4.8
Cc1ccc(-n2nc3c(=O)n(C(C)C(=O)NCc4ccc(Cl)cc4)nc(C)c3c2C)cc1 (stereo unspecified)	0.2	2	-2	-1	0.9	2.1	12	-0.5
CCCCc1nnc2c(N(C)S(=O)(=O)c3ccccc3)nc3ccccc3n12	-0.5	15	-4	-5	-0.2	2.6	-2	0.5
N#CC1=C(N)Oc2cc(N)ccc2C1c1ccccc1Cl (stereo unspecified)	-20	6	18	1	-0.3	133*	2	1.7
Cc1c(C(=O)N2CC3(CC(c4cccc(NC(=O)[C@H]5CCC(=O)N5)c4)=NO3)C[C@@H]2C(N)=O)cc([N+](=O)[O-])cc1[N+](=O)[O-] (stereo partly specified)	0.7	-10	-1	-3	-0.9	-1.1	5	4.7

2 compounds drawn at random from those above, as already listed:
SMILES	UCH37 inh	T cruzi repl	B2AR ag	Calb FLC	Bfl-1 A1 inh	RanGTP-Impb inh	Beta apoptosis	LANA-H2A inh
O=C(CNC(=O)Cn1ccc2ccccc2c1=O)NCCCN1CCCCCC1	-3.1	x	-1	x	0.0	x	-6	3.4
Cc1ccc(-c2nn(-c3ccccc3)cc2C(N)=O)o1	-4.7	-3	-8	14	0.8	u	-3	-4.8
